Screens as filed in PubChem.
D2 PAM: Beta-Arrestin HTS for Positive Allosteric Modulators of the Human D2 Dopamine Receptor: Potentiators. DiscoveRx D2 beta-arrestin cells, luminescence, 90 min; 100% = 57 uM dopamine signal. D(2) dopamine receptor (Homo sapiens), P14416. 360,000 tested, 0.23% active. potentiation, % (no concentration beside the values); active = potentiation of 50% or more; inconclusive = 30% to 50%; inactive = 30% or less;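 also: compound concentration not given in the record; tested on top of an EC20 dose of dopamine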
Target sequence (P14416 whole entry, looked up): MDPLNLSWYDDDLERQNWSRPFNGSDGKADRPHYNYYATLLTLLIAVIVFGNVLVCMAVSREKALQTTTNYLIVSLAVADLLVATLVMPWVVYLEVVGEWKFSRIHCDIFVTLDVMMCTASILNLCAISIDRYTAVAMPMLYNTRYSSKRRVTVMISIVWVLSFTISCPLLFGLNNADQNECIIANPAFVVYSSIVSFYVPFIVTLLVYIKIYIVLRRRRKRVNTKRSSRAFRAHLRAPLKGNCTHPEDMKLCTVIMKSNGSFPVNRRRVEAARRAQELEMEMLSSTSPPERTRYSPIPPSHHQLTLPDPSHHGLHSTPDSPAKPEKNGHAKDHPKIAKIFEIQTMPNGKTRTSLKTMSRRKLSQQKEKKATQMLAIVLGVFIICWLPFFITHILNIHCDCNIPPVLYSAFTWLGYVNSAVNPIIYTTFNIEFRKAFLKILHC
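PathHunter beta-arrestin assay in DiscoveRx D2 cells. Compounds were added with an EC20 of dopamine (50 nM final) for 90 min at 37 deg C. Luminescence was read 1 h after detection reagent, with 57 uM dopamine as the EC100 control.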
PINK1 expr mod: A Quantitative High throughput Screen to Identify Chemical Modulators of PINK1 Expression | PINK1 immunofluorescence, high-content cytometry, 24 h | Potency, µM (series often up to 76.6 µM), without a hit: at the highest dose activation (PINK1 increase), hits mostly activators | 410,000 tested, 0.2% active; active = well fitted activation curve with a large enough effect; inconclusive = small, poorly fitted or top-dose-only effect; inactive = flat fitted curve, though single readings scatter; cell line not stated here;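 also: potency is read from the fitted curve at half-maximal effect; % of control where 0% means no effect; nearly all actives have a fitted effect of over 65% in size; a mitochondrial uncoupler was the plate control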
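Compound titrations (5 concentrations, 24 h) on a stable cell line; DMSO and CCCP controls. Endpoint: fixed-cell PINK1 immunofluorescence with mitochondrial, cell and nuclear markers, scanned by microplate cytometer.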
TRPML1 ag: qHTS for Agonists of the Human Mucolipin Transient Receptor Potential 1 (TRPML1). AID 624414, 2012. 410,000 tested, 0.12% active. activation, % (no concentration beside the values). TRPML1-expressing cells, Ca2+ dye fluorescence, FDSS; host cell line not named in the record; reference of the full effect not given here; in the data active = activation above about 50%; inconclusive = about 30% to 50%; inactive = below about 30%; also: 0% is about no effect; the text of the record puts the active cut at 80%
Target sequence (Q9GZU1 whole entry, looked up): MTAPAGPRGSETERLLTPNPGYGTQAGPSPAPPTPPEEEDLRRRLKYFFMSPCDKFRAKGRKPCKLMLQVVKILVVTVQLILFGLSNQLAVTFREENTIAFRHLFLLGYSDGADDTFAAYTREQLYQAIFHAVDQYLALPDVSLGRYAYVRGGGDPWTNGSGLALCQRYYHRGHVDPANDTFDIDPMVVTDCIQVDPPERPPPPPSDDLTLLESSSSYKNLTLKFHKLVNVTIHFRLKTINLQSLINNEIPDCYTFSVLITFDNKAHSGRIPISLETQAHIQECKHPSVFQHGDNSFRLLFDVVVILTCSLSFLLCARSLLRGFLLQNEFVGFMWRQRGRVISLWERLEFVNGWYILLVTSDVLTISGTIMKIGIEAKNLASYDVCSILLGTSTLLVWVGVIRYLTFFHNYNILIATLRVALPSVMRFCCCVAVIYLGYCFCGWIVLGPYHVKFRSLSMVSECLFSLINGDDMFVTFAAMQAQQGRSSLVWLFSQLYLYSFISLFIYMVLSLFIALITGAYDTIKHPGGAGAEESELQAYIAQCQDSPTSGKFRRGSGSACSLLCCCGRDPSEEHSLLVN
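In this qHTS format, compounds were pin-transferred onto Ca8-dye-loaded TRPML1-DL cells induced with Tet overnight, and intracellular Ca2+ fluorescence was recorded kinetically for 110 s after a 10 s baseline. A subsequent 4uM final 54-4 (EC80) addition followed by a second 110 s read served as the antagonist phase.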
TRPML1 blocker: qHTS for Inhibitors of the Human Mucolipin Transient Receptor Potential 1 (TRPML1); Mucolipin-1 (Homo sapiens), Q9GZU1; TRPML1-inducible cells, Ca2+ dye fluorescence, FDSS; hits give low values; inhibition of EC80 agonist-evoked calcium signal; activity change, negative = inhibition, % (concentration not given with the values); 390,000 tested, 0.02% active; in the data active means activity change below about -50%; inconclusive means about -30% to -50%; inactive means above about -30%;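 also: stimulus is agonist 54-4 at its EC80 concentration; % is scaled to controls: 0 for no effect and ±100 for the full control effect; compound concentration not given in the record; the text of the record puts the active cut at -80%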
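TRPML1-DL cells, Tet-induced overnight (~16 h, 37 °C) at 1,500 cells/well, were loaded with Ca8 no-wash dye plus quencher for 45-90 min at room temperature. Compounds were pinned during FDSS kinetic reading; agonist 54-4 at EC80 (4 uM final) then added.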
D2 agonist: Beta-Arrestin HTS for Positive Allosteric Modulators of the Human D2 Dopamine Receptor: Agonists; activation, % (concentration not given with the values); 360,000 tested, 0.084% active; DiscoveRx PathHunter D2 beta-arrestin, luminescence, 90 min; 100% = 57 uM dopamine signal; AID 624465, 2012; in the data active = activation above about 40%; inconclusive = about 15% to 40%; inactive = below about 15%; also: compound concentration not given in the record; the text of the record calls up to 30% inactive
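DiscoveRx PathHunter D2 beta-arrestin cells (2,100/well) attached overnight, then compound-stimulated 90 min at 37 C in HBSS/10 mM HEPES/0.1% Tween-20 buffer; beta-galactosidase complementation read by luminescence after 1 h at ambient temperature. Dopamine 57 uM final (EC100) as control.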
Six1-Eya2 inh: qHTS Assay for Inhibitors of the Six1/Eya2 Interaction | activity change, % (no concentration beside the values) | 360,000 tested, 0.56% active | AID 651725, 2012 | Homeobox protein SIX1 (Homo sapiens) + Protein phosphatase EYA2 (Homo sapiens), … | AlphaScreen GST-Six1/His-Eya2 binding, biochemical; hits give low values; control for the full effect not named in the record; in the data active = activity change below about -65%; inconclusive = about -30% to -65%; inactive = above about -30%; also: % is scaled to controls: 0 for no effect and ±100 for the full control effect; compound concentration not given in the record
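Homogeneous AlphaScreen proximity assay pairing GST-Six1 with His-tagged Eya2 (added as 5X mix: 250 nM and 500 nM) in 50 mM Tris pH 8.0, 300 mM NaCl, 1 mM TCEP. Glutathione donor and nickel acceptor beads; 1 h, 37 °C, dark.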
* hit, by the source's call; [ ] = remark or other dose.

Screening COc1ccc(CNC(=O)CCC(=O)N2CCN(S(=O)(=O)c3cc([N+](=O)[O-])ccc3C)CC2)cc1 returned D2 PAM 12.1, PINK1 expr mod -2.0%, TRPML1 ag -0.1, TRPML1 blocker 7.0, D2 agonist 1.3 and Six1-Eya2 inh -6.8.
`CCN(CC)S(=O)(=O)c1ccc(-c2nnco2)cc1` gave D2 PAM -7.2, PINK1 expr mod -0.8%, TRPML1 ag -0.9, TRPML1 blocker -6.3, D2 agonist -5.5 and Six1-Eya2 inh -1.1.
CC(C)COc1ccc(C(=O)OCC(=O)N(C)CC(=O)Nc2ccc(F)cc2)cc1 was read as D2 PAM -13.8, PINK1 expr mod 3.0%, TRPML1 ag 1.2, TRPML1 blocker 2.7, D2 agonist 0.0 and Six1-Eya2 inh 0.0.
For CN(C)S(=O)(=O)c1cccc(NC(=O)Cn2cc(C(F)(F)F)cc(Cl)c2=O)c1 the results were D2 PAM -7.4, PINK1 expr mod 1.6%, TRPML1 ag -0.1, TRPML1 blocker 4.3, D2 agonist -2.3 and Six1-Eya2 inh 1.3.
`CC(NCC(O)COCCC12CC3CC(CC(C3)C1)C2)c1ccccc1` (stereo not given) gave D2 PAM -6.3, PINK1 expr mod -2.9%, TRPML1 ag 1.0, TRPML1 blocker 55.9, D2 agonist -4.1 and Six1-Eya2 inh -1.6.
Screening COc1cccc(CN2CCC2(C)C(=O)Nc2ccc3c(c2)OCO3)c1F (stereo not given) returned D2 PAM -2.4, PINK1 expr mod -1.1%, TRPML1 ag -0.8, D2 agonist -4.4 and Six1-Eya2 inh 0.4.
Screening NNC1=N[C@H]2CS(=O)(=O)C[C@H]2S1 returned D2 PAM 2.1, PINK1 expr mod -1.1%, TRPML1 ag 1.3, TRPML1 blocker 25.5, D2 agonist -1.3 and Six1-Eya2 inh -8.5.
Screening Cc1ccc(Cl)cc1NC(=S)N(Cc1ccccc1)Cc1cccnc1 returned D2 PAM -11.2, PINK1 expr mod 0.2%, TRPML1 ag 2.5, TRPML1 blocker 21.5, D2 agonist -4.7 and Six1-Eya2 inh 5.4.
Screening CCOC(=O)c1oc2cc(O)cc(O)c2c(=O)c1OCc1ccccc1 returned D2 PAM -7.5, PINK1 expr mod inconclusive, D2 agonist 6.7 and Six1-Eya2 inh -4.0.
COc1cccc(C(=O)NCC(=O)OCC(=O)C(C)(C)C)c1 was read as D2 PAM -5.3, PINK1 expr mod 0.7%, TRPML1 ag 0.1, TRPML1 blocker 12.0, D2 agonist -4.2 and Six1-Eya2 inh 5.6.
`On1c(-c2ccccc2)nc2ccccc21` gave D2 PAM -2.2, PINK1 expr mod -0.2%, TRPML1 ag -1.1, TRPML1 blocker 10.9, D2 agonist 1.6 and Six1-Eya2 inh 8.2.
For CC(C)[C@H](NC(=O)c1ccccc1)C(=O)OCC(=O)c1c(N)n(C)c(=O)n(C)c1=O the results were D2 PAM 2.0, PINK1 expr mod 7.9%, TRPML1 ag -0.9, TRPML1 blocker -4.4, D2 agonist -2.2 and Six1-Eya2 inh -1.7.

A section of the results above, for reference:
Screening CCOC(=O)c1oc2cc(O)cc(O)c2c(=O)c1OCc1ccccc1 returned D2 PAM -7.5, PINK1 expr mod inconclusive, D2 agonist 6.7 and Six1-Eya2 inh -4.0.
COc1cccc(C(=O)NCC(=O)OCC(=O)C(C)(C)C)c1 was read as D2 PAM -5.3, PINK1 expr mod 0.7%, TRPML1 ag 0.1, TRPML1 blocker 12.0, D2 agonist -4.2 and Six1-Eya2 inh 5.6.

Next records follow.
Cc1ccccc1C(=O)c1cccn1CC(=O)NCCN1CCN(c2cccc(C)c2C)CC1 was read as D2 PAM -42.1, PINK1 expr mod -4.0%, TRPML1 ag 0.2, TRPML1 blocker 30.1, D2 agonist -4.2 and Six1-Eya2 inh inconclusive.
`O=S(=O)(Nc1ccc(-c2ccc3nncn3n2)cc1)c1ccccc1Cl` gave D2 PAM -11.2, PINK1 expr mod 1.4%, TRPML1 ag 1.6, TRPML1 blocker -2.6, D2 agonist -1.3 and Six1-Eya2 inh -10.4.
Screening Cn1cc(S(=O)(=O)c2ccccc2)c(=O)c2cc(F)c(N3CCCCCC3)cc21 returned PINK1 expr mod 1.5%, TRPML1 ag -0.5 and TRPML1 blocker -16.6.
COC(=O)c1sc(NC(=O)c2c(F)cccc2F)c(C#N)c1C was read as D2 PAM 4.2, PINK1 expr mod 0.8%, TRPML1 ag 0.0, TRPML1 blocker -2.1, D2 agonist -4.4 and Six1-Eya2 inh 12.9.
`Cc1nn(-c2ccccc2)c2sc(C(=O)N3CCOCC3)cc12` gave D2 PAM -25.1, PINK1 expr mod 0.4%, TRPML1 ag -0.5, TRPML1 blocker -5.7, D2 agonist -4.0 and Six1-Eya2 inh -5.7.
Screening COc1cccc(-c2c(-c3cc(OC)cc(OC)c3)n(C)c3ccc(-c4ccc5[nH]ccc5c4)cc23)c1 returned D2 PAM -9.8, PINK1 expr mod 3.0%, TRPML1 ag 0.0, TRPML1 blocker -14.1, D2 agonist -2.7 and Six1-Eya2 inh -7.9.
For Cc1ccc(CN2c3ccccc3-c3nc(SCC(=O)NCCc4ccccc4)ncc3S2(=O)=O)cc1 the results were PINK1 expr mod -0.3%, TRPML1 ag 0.8 and TRPML1 blocker 8.5.
Cc1ccc(NC(=O)CN2C(=O)CCn3nc(-c4cccn4C)cc32)c(Cl)c1 was read as PINK1 expr mod -0.6%, TRPML1 ag 1.9 and TRPML1 blocker 3.3.
C=CCSc1nnc(CNS(=O)(=O)c2ccc(C)cc2)n1C was read as D2 PAM -13.3, PINK1 expr mod 0.4%, TRPML1 ag 0.8, TRPML1 blocker 1.4, D2 agonist 1.0 and Six1-Eya2 inh 2.5.
Screening CN(C)c1ccc(CNS(=O)(=O)c2ccc(-c3cc(C(F)(F)F)on3)s2)cc1 returned PINK1 expr mod 2.3%, TRPML1 ag 0.0 and TRPML1 blocker -8.4.
For O=S(=O)(NCCOc1ccccc1F)c1cccc(Br)c1 the results were D2 PAM -4.4, PINK1 expr mod -0.5%, TRPML1 ag 2.1, TRPML1 blocker 17.3, D2 agonist -0.1 and Six1-Eya2 inh 6.6.
CS(=O)(=O)c1nc2ccccc2n1Cc1ccccc1 was read as D2 PAM -9.6, PINK1 expr mod 16.2%[38.3 µM], TRPML1 ag -1.0, TRPML1 blocker -7.0, D2 agonist -4.5 and Six1-Eya2 inh 5.9.
`C=CCNS(=O)(=O)c1cccc(C(C)=O)c1` gave D2 PAM -0.1, PINK1 expr mod 1.2%, TRPML1 ag 0.8, TRPML1 blocker 0.7, D2 agonist 4.1 and Six1-Eya2 inh 6.7.
`c1ccc(CNc2c(C3CCNCC3)nc3scc(-c4ccccc4)n23)cc1` gave D2 PAM -11.0, PINK1 expr mod -1.4%, TRPML1 ag 0.1, D2 agonist -5.3 and Six1-Eya2 inh 2.0.
`CCOC(=O)c1c(C)[nH]c(CCC(=O)NCc2ccc(N(C)C)cc2)c1C` gave PINK1 expr mod -0.5%, TRPML1 ag 0.3 and TRPML1 blocker 40.4.
For COc1ccc(-n2c(=S)[nH]c3cc(C(=O)NCCCN4CCOCC4)ccc3c2=O)cc1 the results were D2 PAM -6.4, PINK1 expr mod 1.6%, TRPML1 ag 0.2, TRPML1 blocker -6.0, D2 agonist 5.2 and Six1-Eya2 inh 4.0.
For CCCCn1nnc(NC(=O)Cc2ccc(Cl)cc2)n1 the results were D2 PAM -12.0, PINK1 expr mod 1.7%, TRPML1 ag 0.2, TRPML1 blocker -6.1, D2 agonist 0.5 and Six1-Eya2 inh 14.2.
CS(=O)(=O)N1CCC(C(=O)N2CCC(Cc3ccccc3)CC2)CC1 was read as D2 PAM 4.4, TRPML1 ag -0.4, TRPML1 blocker 3.5, D2 agonist -1.4 and Six1-Eya2 inh 4.0.
Screening CN(C)c1ccc(P(=O)(OCc2ccccc2)C(O)c2ccc(Br)cc2)cc1 (stereo not given) returned D2 PAM -13.1, PINK1 expr mod 0.5%, TRPML1 ag 0.0, TRPML1 blocker 27.1, D2 agonist -3.2 and Six1-Eya2 inh 7.7.
CC1=C(C(=O)Nc2ccccc2C)C(c2ccc(C)o2)N2C(=O)CSC2=N1 (stereo not given) was read as D2 PAM -14.7, PINK1 expr mod 2.7%[38.3 µM], TRPML1 ag 0.6, TRPML1 blocker 20.9, D2 agonist -3.1 and Six1-Eya2 inh -17.0.
Screening CCOC(=O)CCN(C(=S)Nc1ccccc1)C1CCCCC1 returned D2 PAM -5.3, PINK1 expr mod 3.4%, TRPML1 ag -0.9, TRPML1 blocker 35.6, D2 agonist -1.9 and Six1-Eya2 inh 7.0.
For Cc1cc(C)c2nc(NCc3ccccc3O)sc2c1 the results were D2 PAM 1.1, PINK1 expr mod 4.6%, TRPML1 ag 0.7, TRPML1 blocker -0.2, D2 agonist 7.6 and Six1-Eya2 inh 1.4.
Cc1ccc(S(=O)(=O)N2CCN(C(=O)c3cccs3)CC2)c(C)c1 was read as D2 PAM -2.0, PINK1 expr mod 2.2%, TRPML1 ag 1.4, TRPML1 blocker 2.0, D2 agonist -4.3 and Six1-Eya2 inh 1.4.
For COc1ccc(NC(=O)CC2C(=O)N(C)C(=S)N2CCc2ccc(F)cc2)cc1 (stereo not given) the results were D2 PAM -3.7, PINK1 expr mod inconclusive, TRPML1 ag 2.6, TRPML1 blocker 7.3, D2 agonist -1.5 and Six1-Eya2 inh -13.1.
COc1ccc(NC(=O)NNC(=O)C(O)(c2ccccc2)c2ccccc2)cc1 was read as D2 PAM -7.9, PINK1 expr mod -0.1%, TRPML1 ag 0.1, TRPML1 blocker -3.8, D2 agonist 0.3 and Six1-Eya2 inh -0.2.
`O=[N+]([O-])c1ccc(F)cc1F` gave D2 PAM 0.0, PINK1 expr mod 1.1%, TRPML1 ag 0.2, TRPML1 blocker 29.0, D2 agonist 3.3 and Six1-Eya2 inh 0.4.
`O=C(COc1nc2ccccc2nc1N1CCOCC1)NC1CCCCC1` gave D2 PAM -3.7, PINK1 expr mod -0.8%, TRPML1 ag 3.3, TRPML1 blocker -17.1, D2 agonist -4.1 and Six1-Eya2 inh -0.9.
`Cc1ccc(C)c(S(=O)(=O)N2CCN(CC(=O)N3CCc4ccccc4C3)CC2)c1` gave D2 PAM -5.4, PINK1 expr mod 3.8%, TRPML1 ag -0.1, TRPML1 blocker 4.9, D2 agonist -4.9 and Six1-Eya2 inh -3.0.
Screening COc1ccc2c(Sc3ccccc3)c(C(=O)NCc3cc(Br)ccc3OC)[nH]c2c1 returned PINK1 expr mod 0.6%, TRPML1 ag 1.4 and TRPML1 blocker 7.9.
